NPYLR7 ag = mosquito NPYLR7 agonism; hit rate 0.15% among 270,000; HEK293T NPYLR7/Galpha15, GCaMP6s calcium fluorescence; activation, % at 10 µM; in the data active = activation above about 40%;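 note: 0% = vehicle and 100% = reference agonist at the receptor; some compounds past the cut are filed as inactive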
NPYLR7 ag max-min = recorded beside NPYLR7 ag, whose call it bears; activation, %; measured here: Max-Min RFU normalised activation; some inactives read as strong as hits;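 span of the calcium signal over five minutes; 0% = vehicle and 100% = native peptide agonist; compound fluorescence can raise it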
Active calls of the source: *; & = joins results of further samples.

compound,NPYLR7 ag max-min,NPYLR7 ag
CCc1nc(C2CN(C3CC(C)OC3=O)CCO2)n[nH]1 (stereo unspecified),4,4
N#CC1C(=N)Oc2n[nH]c(-c3ccc4c(c3)OCO4)c2C1c1ccccc1Br (stereo unspecified),-2,1
COC(=O)C1=C(C)N(c2ccc(C(=O)O)cc2)C(=O)NC1c1ccccc1 (stereo unspecified),-3,-3
O=S(=O)(Nc1nc2ccc(F)cc2s1)c1ccccc1C(F)(F)F,5,0
CCn1c(C2CCCN(C(=O)C(=O)c3cccnc3)C2)nn(C)c1=O (stereo unspecified),3,2
COc1ccc(-c2nc(CSc3c(Cl)cccc3Cl)cs2)cc1OC,1,2
Cc1cc(NC(=O)CSc2nnc(C3CC3)n2C2CC2)no1,4,5
CCCCCn1c(=N)c(C#N)cc2c(=O)n3ccccc3nc21,12,9
CCn1cc(C(CC(=O)N2CCN(c3cccc(C(F)(F)F)c3)CC2)c2cccc(Cl)c2)c2ccccc21 (stereo unspecified),10,7
O=C(c1ccccc1F)N1CCc2c(c(C(=O)N3CCOCC3)nn2CCCc2ccccc2)C1,4,19
CCCc1ncncc1C(=O)N1CCC(N2CCCC(C(=O)NC3CC3)C2)CC1 (stereo unspecified),15,21
O=C(Nc1ccc2c(c1)OCO2)N1CCN(c2ccc3nnc(C4CC4)n3n2)CC1,4,-1
O=C1C2C3C=CC(C4CC34)C2C(=O)N1c1ccccc1F (stereo unspecified),0,1
O=C(CCn1ccccc1=O)N1CC[C@@H](c2ccc3c(c2)OCO3)[C@H](O)C1,0,0
O=C(NC1CCCCCC1)C1CCC(CNc2c(N3CCCCC3)c(=O)c2=O)CC1 (stereo unspecified),3,5
CCNC(=O)NC1CC(=O)N(Cc2ccccc2C(F)(F)F)C1 (stereo unspecified),-4,-4
O=C1OC(c2ccc(F)cc2)=N/C1=C\c1ccco1,19,14
CN(C)c1ccc(NC(=O)Nc2ccc3c(c2)c(=O)n(C)n3-c2ccccc2)cc1,-5,-4
CC(=O)N[C@@H]1C[C@H](Cc2ccccc2)O[C@H](c2ccc(Cl)cc2)C1,-5,-3
O=C(c1cn(CCc2ccccc2)nn1)N1CCCC(OCc2ccccc2)C1 (stereo unspecified),-17,-16
O=S(=O)(Nc1ccc2nc(-c3cccc(F)c3)nn2c1)C1CC1,-1,7
COc1ccc(CC(=O)N2CCCN(c3nc(CC(C)C)nc4onc(-c5cccc(C(F)(F)F)c5)c34)CC2)cc1,6,11
CC1CCN(C(=O)C(C)n2cccn2)CC1 (stereo unspecified),-9,-4
Cc1ccc(C(O)=C2C(=O)C(=O)N(CCN3CCOCC3)C2c2ccc(Cl)cc2)cc1 (stereo unspecified),12,11
Cc1nc(CNC(=O)c2cc(C)c3nc(N)sc3c2)cs1,-6,-5
O=C(CC1(O)C(=O)Nc2ccc(Br)cc21)c1ccco1 (stereo unspecified),-1,1
O=C(c1ccc2oc(CCc3ccccc3)nc2c1)N1CCc2[nH]ncc2C1,7,19
CC1CCN(c2nc3c(c(=O)[nH]c(=O)n3C)n2Cc2ccccc2F)CC1,1,8
CSc1cccc(CN2CCCC(CO)(Cc3cccc(Cl)c3)C2)c1 (stereo unspecified),12,5
Nc1n[nH]c(C(=O)N2CCOC(C(F)(F)F)C2)c1-c1ccccc1 (stereo unspecified),1,-2
Cc1cccc(S(=O)(=O)NC(=O)C2(C)CCN2C(=O)C2(c3ccccc3)CC2)c1 (stereo unspecified),5,3
CC(C)(C)Nc1c(-c2cccc(F)c2)nc2ccccn12,7,-1
Cc1cc(NC(=O)COc2c(C)cc(Cl)cc2C)ccc1N1CCCC1=O,7,3
CCN(CCn1cccn1)C(=O)c1sc(C)nc1C,0,1
COc1ccc(Nc2nnc(-c3ccc(C)cc3)c(=O)[nH]2)cc1,9,12
CC(C)c1cc(C(C)C)n(C2CCN(C(=O)c3ccc(Cl)cc3)CC2)n1,22,33
Cc1cn2c3c(=O)[nH]c(=O)n(C)c3nc2n1CCN1CCc2ccccc2C1,5,1
COc1cc(/C=C2/C(=O)N(c3ccc(Cl)c(Cl)c3)N=C2C)ccc1O,-16,-7
O=C(c1ccc(SC(F)(F)F)cc1)N1CCC2(CC1)OCCCO2,-15,-10
COc1ccc(C(O)(c2ccc(OC)cc2)c2ccc(CN(Cc3cccc(OC)c3OC)C(C)C)o2)cc1,1,-1
O=S(=O)(/C=C/c1ccccc1)Nc1ccnn1C1CCCC1,8,6
COc1cc(C2C(C(=O)OCC(C)C)=C(C)NC3=C2C(=O)CC(c2ccccc2)C3)ccc1OCc1ccccc1 (stereo unspecified),1,3
CCn1nc(C)c(CNC(C)Cn2nc(C)cc2C)c1C (stereo unspecified),2,5
CCN(CC(=O)Nc1cc(C(C)(C)C)nn1-c1ccc(Cl)cc1)C(=O)Nc1ccc(Cl)cc1Cl,14,3
CCOc1cc(C2C(C(=O)OC(C)C)=C(C)NC3=C2C(=O)CCC3)cc([N+](=O)[O-])c1O (stereo unspecified),-12,-9
Cn1c(=O)c2ccn(CC(=O)O)c2n(C)c1=O,8,9
Cc1ccc2nc(SCC(=O)Nc3nc4ccccc4s3)[nH]c2c1,-15,-6
C=C(C)COc1ccccc1C(=O)NCCc1nc2c(C)cccc2[nH]1,-13,-4
CC1(Cc2ccc(Cl)s2)C(=O)Nc2c(Cl)cccc21 (stereo unspecified),5,0
CC1CCCC(Nc2nnnn2-c2ccccc2)C1C (stereo unspecified),1&-2,0&1

Later entries.
compound,NPYLR7 ag max-min,NPYLR7 ag
Cc1noc(C)c1C(=O)Nc1ccccc1SCC(N)=O,-2,6
CC1(C(=O)NS(=O)(=O)c2ccccc2)CCN1C(=O)Cc1ccccc1Cl (stereo unspecified),0,6
CN(CCOc1ccccc1)C(=O)[C@@H]1CCCN1C(=O)Nc1ccc2c(c1)OCCO2,-2,-4
CCOc1ccccc1C1NC(=O)NC(C)=C1C(=O)OCC(F)(F)C(F)(F)F (stereo unspecified),-5,-1
N#Cc1ccc(S(=O)(=O)NC(=O)COC2CCCCC2)cc1C(F)(F)F,-2,0
O=C(NCCCNC(=O)[C@H]1CCCN1C(=O)CCc1ccccc1)c1ccccc1,12,2
Cc1nc(SCC(=O)c2cc(C)n(Cc3ccco3)c2C)c2c3c(sc2n1)CCC3,-4,-3
COc1ccc(C)cc1C(C(=O)O)N1CCN(c2nc(C)cc(C)n2)CC1 (stereo unspecified),-10,-7
CC(C)N(C)S(=O)(=O)N1CCCCC1C1OCCO1 (stereo unspecified),5,5
COc1ccc2c(c1)c1c(c(=O)n(Cc3ccccc3)c(=O)n1CC(=O)Nc1ccc(C)c(C)c1)n2C,-12,-11
CC1(C)CCCC(NCCSc2cn[nH]n2)C1 (stereo unspecified),3,12
CC(NC(=O)c1ccc(Br)o1)C1CC2CCC1C2 (stereo unspecified),17,12
Cc1ccc(CCNc2ccccc2S(C)(=O)=O)cn1,7,8
CCOC(=O)c1nn(-c2ccc(C)cc2)c(=O)cc1OCC(=O)Nc1ccccc1C,6,10
COc1ccc(CCN(Cc2ccc(C)o2)C(=O)CN(CCN2CCCC2)C(=O)c2cccc(Br)c2)cc1OC,-14,-19
O=C(COc1ccccc1)NNC(=O)c1ccc(=O)n(Cc2ccc(Cl)cc2)c1,-18,-13
CN(Cc1nc2ccccc2c(=O)[nH]1)C(=O)c1cc2c(s1)CCCCCC2,0,2
CC1=C(C)CC(C(=O)N2CCN(C(=O)C3CCCO3)CC2)C(C(=O)O)C1 (stereo unspecified),-16,-10
OCc1cn(CC2CCN(CC3CC=CCC3)CC2)nn1 (stereo unspecified),-4,2
C=C(C)Cn1c(=O)c2c(nc3n2CC(C)CN3c2ccc(F)cc2)n(C)c1=O (stereo unspecified),2,7
O=C(c1cc2n(n1)CCNC2)N1CCC(c2ccccc2Cl)C1 (stereo unspecified),-2,-1
CN(C)c1ncccc1CNC(=O)c1ccccn1,11,23
Cc1ccc(NC(=O)CSc2nc3[nH]ncc3c(=O)[nH]2)c(C)c1,-2,-2
O=c1[nH]ncc(N2CCc3ccccc3C2)c1Cl,6,0
Cc1cccc(S(=O)(=O)N=C2C=C(C(C)(C)C)C(=O)C(C(C)(C)C)=C2)c1,0,5

A different layout for part of the listing above:
> C=C(C)Cn1c(=O)c2c(nc3n2CC(C)CN3c2ccc(F)cc2)n(C)c1=O (stereo unspecified)
  NPYLR7 ag max-min = 2
  NPYLR7 ag = 7

> O=C(c1cc2n(n1)CCNC2)N1CCC(c2ccccc2Cl)C1 (stereo unspecified)
  NPYLR7 ag max-min = -2
  NPYLR7 ag = -1

> CN(C)c1ncccc1CNC(=O)c1ccccn1
  NPYLR7 ag max-min = 11
  NPYLR7 ag = 23

> Cc1ccc(NC(=O)CSc2nc3[nH]ncc3c(=O)[nH]2)c(C)c1
  NPYLR7 ag max-min = -2
  NPYLR7 ag = -2

The list goes on:
compound,NPYLR7 ag max-min,NPYLR7 ag
CCOC(=O)c1cc(-n2cc([N+](=O)[O-])cn2)cnc1C,-9,-5
COc1ccc(F)cc1-c1csc(NC(=O)c2cncc(Br)c2)n1,-2,0
O=S1(=O)CC2C(C1)N(c1ccccc1)C(=S)N2c1ccccc1 (stereo unspecified),-7,-8
CC(C)COC(C)C(=O)Nc1ccc(F)c(F)c1 (stereo unspecified),-7,-7
COCC(=O)N1CCSC12C(=O)N(Cc1ccccc1Cl)c1ccc(C)cc12 (stereo unspecified),13,11
Cc1cc2ncn(CC3CCN(C(=O)CN4C(=O)CCC4=O)CC3)c2cc1C,-3,-1
O=C(CSCc1cc(=O)n2ccsc2n1)Nc1cc(Cl)ccc1N1CCCCC1,0,0
CS(=O)(=O)N1CCC(c2nn(CC(=O)Nc3cc(F)ccc3F)c(=O)n2-c2cccs2)CC1,-6,-7
CN1CCN(C)C2(CCN(C(=O)c3c(O)ccc4ccccc34)CC2)C1,8,20
COCC(C)Nc1c(F)cc(C#N)cc1F (stereo unspecified),9,21
CCN(Cc1ccoc1)C(=O)NCCNC(=O)c1cccc(C)c1,0,2
CCCc1cnc(N2CCC3(CC2)CNC(=O)C3)nc1,0,3
O=C(c1cn2ccccc2n1)N1CCC(N2CCCC(C(=O)N3CCCC3)C2)CC1 (stereo unspecified),-15,1
C=CCNC(=O)N1CCSC12C(=O)N(Cc1cccc(C)c1)c1ccc(Cl)cc12 (stereo unspecified),5,3
N#Cc1c(OCC(=O)N2CCCC3CCCCC32)[nH]c2ccccc12 (stereo unspecified),-3,-2
O=S(=O)(NC1CCSc2ccccc21)c1cccs1 (stereo unspecified),14,8
CC(=O)c1ccc(OCC(=O)NCCSCc2ccsc2)cc1,-8,-2
Cc1cc(N2CCCN(Cc3ccc4[nH]ccc4c3)CC2)ccn1,-2,3
O=S1(=O)N=C(N=Nc2c(O)[nH]c3ccccc23)c2ccccc21,-21,-17
COCCN(Cc1cccc(F)c1)Cc1ccc(C(O)(c2cccc(F)c2)c2cccc(F)c2)o1,-7,-11
CC1(C)CN(CCC#N)C(=O)CN(C(=O)CCc2ccccc2)C1,6,2
O=C(COc1ccccc1F)Nc1nnc(SCc2ccccc2)s1,5,0
O=C(c1ccccc1)c1ccc2c(c1)N=C1CCCC(=O)C1C1c3ccccc3C(=O)N21 (stereo unspecified),-6,-6
Nc1ncc(Br)cc1[N+](=O)[O-],3,2
CCOc1ncccc1C(=O)N(C)CCc1nc2ccc(F)cc2[nH]1,-11,-2
CC(C)/C=C/C(=O)N1CCC(CO)(Cc2ccccc2C(F)(F)F)CC1,-23,-18
COc1ccc(-c2cc(C(=O)NCc3cccc(C(F)(F)F)c3)n3nc(C(C)(C)C)cc3n2)cc1,9,12
CCN(Cc1ccccc1NC(=O)Cn1cccn1)C(=O)OC(C)(C)C,4,6
COc1cccc(Oc2cnn(C)c(=O)c2Nc2cccc(C(=O)O)c2)c1,10,13
O=C1C=CC2=C3c4cc(O)c(O)cc4C[C@@]3(O)COC2=C1,10,12
CN(Cc1ccc(C(=O)O)cc1)Cc1nc2ccccc2n1C,10,25
CCc1nncn1CCNC(=O)NCc1c(C)cc(C)cc1C,0,-1
O=C(CCc1cc(=O)[nH]o1)N1CCCC(c2ccn[nH]2)C1 (stereo unspecified),4,6
Cc1cccc(/C=N\NC(=O)c2cc(C)nc3ccccc23)n1,19,14
CN(C)c1ccc(NC(=O)Nc2ccc(C(F)(F)F)cc2)cc1CN(C(=O)c1ccc(F)cc1)C1CC1,32,24
CCOC(=O)c1c(C)n(C)c2c1cc(OC)c1ccccc12,5,6

Among those listed so far, these contain a nitro group on carbon:
compound,NPYLR7 ag max-min,NPYLR7 ag
CCOc1cc(C2C(C(=O)OC(C)C)=C(C)NC3=C2C(=O)CCC3)cc([N+](=O)[O-])c1O (stereo unspecified),-12,-9
CCOC(=O)c1cc(-n2cc([N+](=O)[O-])cn2)cnc1C,-9,-5
Nc1ncc(Br)cc1[N+](=O)[O-],3,2

Source: PubChem BioAssay

Not all compounds are listed. The share of hits here may be higher or lower than overall.
